Compound activity (PubChem BioAssay)
PV pol inh: poliovirus RdRp elongation inhibitors, primary screen, biochemical, fluorescence polarization, total intensity; % elongation, % (compound at 16.7 µg/mL); 150,000 compounds, 0.66% hits; poliovirus polymerase elongation; active compounds read low; Genome polyprotein (Poliovirus type 1 (strain Mahoney)), P03300; in the data active = % elongation below about 90%; note: some results filed as inactive read as strong as hits
Target sequence (P03300 1749-2209 limits assumed): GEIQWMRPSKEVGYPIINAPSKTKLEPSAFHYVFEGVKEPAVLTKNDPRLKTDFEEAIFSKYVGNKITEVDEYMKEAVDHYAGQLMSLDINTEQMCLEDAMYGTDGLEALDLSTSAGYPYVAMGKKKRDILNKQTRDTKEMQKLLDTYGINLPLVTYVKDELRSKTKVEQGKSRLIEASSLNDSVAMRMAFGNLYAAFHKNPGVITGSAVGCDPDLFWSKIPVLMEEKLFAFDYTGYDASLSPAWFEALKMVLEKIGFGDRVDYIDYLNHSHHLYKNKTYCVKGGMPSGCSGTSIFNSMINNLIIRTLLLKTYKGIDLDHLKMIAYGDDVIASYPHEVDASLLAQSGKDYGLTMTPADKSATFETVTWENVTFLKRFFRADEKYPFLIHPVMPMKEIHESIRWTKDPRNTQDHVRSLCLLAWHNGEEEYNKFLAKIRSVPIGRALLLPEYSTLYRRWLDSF
PV pol inh intensity: recorded beside PV pol inh, whose call it bears; % elongation; measured here: total intensity read-out; formula for this scale not given here;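 total fluorescence in place of polarization; lower means less elongation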
Numbers without * were called inactive.

How did CCOC(=O)c1ccc(NC(=O)CC2Nc3cccc4cccc(c34)NC2=O)cc1 (stereo not given) do in these assays?
PV pol inh: 97.0; PV pol inh intensity: 95.0

Results for Cc1nn(C)c2c1c(-c1ccccc1)cc(=O)n2CC(=O)NC(C)c1ccccc1 (stereo not given) ?
PV pol inh: 104.0; PV pol inh intensity: 109.0

What do the screens show for `Cc1ccc(-c2cc(C(=O)Oc3ccccc3Cl)no2)cc1C`?
PV pol inh: 105.0; PV pol inh intensity: 103.0

How did CCOc1ccc(CNC(=O)c2ccc(NC(=O)N3CCCCc4ccccc43)cc2)cc1OC do in these assays?
PV pol inh: 111.0; PV pol inh intensity: 112.0

How did CCOc1ccc(CN2C(=O)c3ccccc3Sc3ccc(C(=O)NCCc4ccccc4)cc32)cc1 do in these assays?
PV pol inh: 108.0; PV pol inh intensity: 108.0

Results for O=C(NCc1cccs1)c1ccc2c(c1)N(Cc1cccc(F)c1)C(=O)c1ccccc1S2 ?
PV pol inh: 108.0; PV pol inh intensity: 106.0

Results for CCCCNS(=O)(=O)c1ccc2nc(NC(=O)c3cccnc3)sc2c1 ?
PV pol inh: 110.0; PV pol inh intensity: 116.0

Results for Cc1cccc(N2CCN(c3nc4ccccc4c(=O)n3-c3ccc(Cl)cc3)CC2)c1C ?
PV pol inh: 105.0; PV pol inh intensity: 109.0

Results for CCC(=O)N1c2ccc(S(=O)(=O)N3CCN(c4ccccc4Cl)CC3)cc2CC1C (stereo not given) ?
PV pol inh: 109.0; PV pol inh intensity: 107.0

How did Cn1cc(S(=O)(=O)N2CCOCC2)cc1C(=O)Nc1cccc(C#N)c1 do in these assays?
PV pol inh: 107.0; PV pol inh intensity: 110.0

Results for O=C(C1CCN(c2ncnc3c2nc2n3CCCCC2)CC1)N1CCN(c2ccc(Cl)cc2)CC1 ?
PV pol inh: 104.0; PV pol inh intensity: 110.0

How did COc1ccc(Nc2ncc3c(n2)CCN(Cc2cccc(F)c2F)C3)c(OC)c1 do in these assays?
PV pol inh: 106.0; PV pol inh intensity: 106.0

How did CC(=O)c1ccc(NC(=O)c2ccc(-n3cnnc3)cc2)cc1 do in these assays?
PV pol inh: 104.0; PV pol inh intensity: 100.0

What do the screens show for `CC(=O)c1cccc(NC(=O)c2cc(-c3ccc(Cl)s3)nc3ccccc23)c1`?
PV pol inh: 107.0; PV pol inh intensity: 109.0

Results for Cc1ccc(Cl)cc1NC(=O)Cn1c(=O)n(Cc2ccc(C(=O)NCc3ccc4c(c3)OCO4)cc2)c(=O)c2ccccc21 ?
PV pol inh: 108.0; PV pol inh intensity: 106.0

What do the screens show for `CN(c1ccc(F)cc1)S(=O)(=O)N1CCCC(C(=O)NCCc2ccccc2)C1` (stereo not given)?
PV pol inh: 102.0; PV pol inh intensity: 99.0

How did COc1cccc(-c2cn3c(n2)sc2cc(C(=O)NCCCc4ccccc4)ccc23)c1 do in these assays?
PV pol inh: 105.0; PV pol inh intensity: 104.0

Results for COc1ccc(CNCCC(c2ccc(C)cc2)c2ccco2)cc1 (stereo not given) ?
PV pol inh: 108.0; PV pol inh intensity: 108.0

What do the screens show for `CSc1ccc(CCNC(=O)C2=C(C)C(=O)OC23CCCCC3)cc1`?
PV pol inh: 106.0; PV pol inh intensity: 108.0

What do the screens show for `COc1cccc2c1cc1c(=O)n(CC(=O)NC3CCCCC3)nc(C)n12`?
PV pol inh: 108.0; PV pol inh intensity: 110.0

What do the screens show for `Cc1nnc(NC(=O)c2cccn(Cc3cccc([N+](=O)[O-])c3)c2=O)s1`?
PV pol inh: 105.0; PV pol inh intensity: 108.0

How did O=C(NCc1ccc(Cl)cc1)c1ccc(CNS(=O)(=O)c2ccc(F)cc2)cc1 do in these assays?
PV pol inh: 107.0; PV pol inh intensity: 114.0

What do the screens show for `Cc1c(C(=O)Nc2cccc(C(F)(F)F)c2)oc2ccc3c(c12)C(=O)CC(C)(C)O3`?
PV pol inh: 119.0; PV pol inh intensity: 123.0

How did Cn1ccc2c(OCC(=O)Nc3cc(C(F)(F)F)ccc3Cl)cccc2c1=O do in these assays?
PV pol inh: 108.0; PV pol inh intensity: 113.0

How did COc1cccc(C(=O)Nc2ccc(S(=O)(=O)N(Cc3ccccc3)c3ccccc3)cc2)c1 do in these assays?
PV pol inh: 105.0; PV pol inh intensity: 101.0

How did CCc1ccc(NC(=O)c2cc(S(=O)(=O)N3CCCCCC3)ccc2F)cc1 do in these assays?
PV pol inh: 110.0; PV pol inh intensity: 101.0

How did Fc1cccc(Cl)c1CNc1n[nH]c(-c2ccco2)n1 do in these assays?
PV pol inh: 105.0; PV pol inh intensity: 111.0

Results for CCOC(=O)C1CCCN(C(=O)c2ccc(NC(=O)c3nsc4ccccc34)cc2)C1 (stereo not given) ?
PV pol inh: 108.0; PV pol inh intensity: 109.0

How did CCn1c(=O)cc(SCC(=O)NCc2ccc(OC)cc2OC)c2ccccc21 do in these assays?
PV pol inh: 105.0; PV pol inh intensity: 107.0

How did O=c1c2c3c(sc2n(Cc2ccc(F)cc2Cl)c(=O)n1-c1ccc(Cl)cc1)CCC3 do in these assays?
PV pol inh: 107.0; PV pol inh intensity: 98.0

What do the screens show for `CCN1CCN(C(=O)c2ccc3c(c2)N(Cc2ccccc2F)C(=O)c2ccccc2S3=O)CC1` (stereo not given)?
PV pol inh: 107.0; PV pol inh intensity: 108.0

Results for CCC(=O)N1CCc2cc(CNC(=O)c3ccc(C#N)cc3)ccc21 ?
PV pol inh: 104.0; PV pol inh intensity: 105.0

What do the screens show for `Cc1nn(C(C)C(=O)Nc2cccc(F)c2)c(=O)c2c1sc1ccccc12` (stereo not given)?
PV pol inh: 116.0; PV pol inh intensity: 111.0

What do the screens show for `O=C(Nc1noc2ccccc12)c1ccc(F)cc1`?
PV pol inh: 121.0; PV pol inh intensity: 119.0

Results for CCN(CC)S(=O)(=O)c1ccc2c(c1)N(CC(=O)Nc1cccc(C)c1C)C(=O)C1CCCN21 (stereo not given) ?
PV pol inh: 112.0; PV pol inh intensity: 133.0

What do the screens show for `CCN1CCC(N(Cc2cccc(OC)c2)C(=O)Nc2cccc(C)c2C)CC1`?
PV pol inh: 105.0; PV pol inh intensity: 109.0

Results for CCOc1ccccc1N1CC(c2nc3ccccc3n2CCCCOc2ccccc2)CC1=O (stereo not given) ?
PV pol inh: 110.0; PV pol inh intensity: 113.0

How did CCN(Cc1ccccc1)S(=O)(=O)c1ccc2c(c1)CC(C)N2C(=O)C1CCC1 (stereo not given) do in these assays?
PV pol inh: 110.0; PV pol inh intensity: 105.0

How did COCCNc1nc(NCc2cccc(Cl)c2)c2cnn(C)c2n1 do in these assays?
PV pol inh: 102.0; PV pol inh intensity: 100.0

What do the screens show for `CCCS(=O)(=O)N1CC(=O)N(c2ccccc2C)C(C)(C(=O)NC2CCCC2)C1` (stereo not given)?
PV pol inh: 103.0; PV pol inh intensity: 107.0

Results for COc1cccc(CNC(=O)C2CCN(C(=O)N3CCOc4ccc(Cl)cc43)CC2)c1OC ?
PV pol inh: 108.0; PV pol inh intensity: 101.0

What do the screens show for `COc1ccc(-c2cc3nc(-c4ccccc4)cc(C(F)(F)F)n3n2)cc1`?
PV pol inh: 103.0; PV pol inh intensity: 107.0

Results for CC(C)CN(CCNC(=O)c1cn(C)c2ccc(S(=O)(=O)N3CCCCCC3)cc2c1=O)CC(C)C ?
PV pol inh: 106.0; PV pol inh intensity: 109.0

How did CCn1c(=N)c(C(=O)NC2CCCCC2)cc2c(=O)n3cc(C)ccc3nc21 do in these assays?
PV pol inh: 109.0; PV pol inh intensity: 110.0

What do the screens show for `Cc1cc(C)cc(Oc2nc3c(C)cccn3c(=O)c2/C=C(\C#N)c2nc3ccccc3[nH]2)c1`?
PV pol inh: 105.0; PV pol inh intensity: 110.0

Sorted by molecular weight (rising): three of the compounds above.
What do the screens show for `COc1cccc2c1cc1c(=O)n(CC(=O)NC3CCCCC3)nc(C)n12`?
PV pol inh: 108.0; PV pol inh intensity: 110.0

How did CCN(Cc1ccccc1)S(=O)(=O)c1ccc2c(c1)CC(C)N2C(=O)C1CCC1 (stereo not given) do in these assays?
PV pol inh: 110.0; PV pol inh intensity: 105.0

How did O=c1c2c3c(sc2n(Cc2ccc(F)cc2Cl)c(=O)n1-c1ccc(Cl)cc1)CCC3 do in these assays?
PV pol inh: 107.0; PV pol inh intensity: 98.0

The results go on:
Results for Cc1cc(C)cc(Nc2cc(C(=O)NC3CCC(C)CC3)c3ccccc3n2)c1 (stereo not given) ?
PV pol inh: 105.0; PV pol inh intensity: 108.0

What do the screens show for `Cc1nn(-c2ccccc2)c2nc(C3CC3)cc(C(=O)Nc3ccc(F)cc3)c12`?
PV pol inh: 114.0; PV pol inh intensity: 114.0

How did Cc1ccc(Cn2c(CO)cnc2SCC(=O)NCc2ccccc2Cl)cc1 do in these assays?
PV pol inh: 108.0; PV pol inh intensity: 107.0

Results for O=C(COc1ccccc1F)Nc1ccccc1C(=O)OCc1cc(=O)n2nc(C3CC3)sc2n1 ?
PV pol inh: 111.0; PV pol inh intensity: 111.0

Results for Cc1c(NC(=O)c2sc3c([N+](=O)[O-])cccc3c2Cl)cccc1-c1nc2ccccc2o1 ?
PV pol inh: 102.0; PV pol inh intensity: 103.0

What do the screens show for `Cc1noc(-c2ccc(NC(C)c3ccccc3)c([N+](=O)[O-])c2)n1` (stereo not given)?
PV pol inh: 107.0; PV pol inh intensity: 116.0

Results for Cc1ccc(C)c(N2CCN(S(=O)(=O)c3cnc(N)nc3)CC2)c1 ?
PV pol inh: 99.0; PV pol inh intensity: 106.0

How did COc1cc(OC)c(NS(=O)(=O)c2cc(-c3cnc(C4CC4)o3)ccc2C)cc1Cl do in these assays?
PV pol inh: 106.0; PV pol inh intensity: 116.0

Results for CCC(=O)N1CCc2cc(CNS(=O)(=O)c3ccccc3F)ccc21 ?
PV pol inh: 112.0; PV pol inh intensity: 103.0

What do the screens show for `CC(C)OCCCNC(=O)CN1C(=O)COc2ccc(S(=O)(=O)N3CCOCC3)cc21`?
PV pol inh: 98.0; PV pol inh intensity: 101.0

What do the screens show for `Cc1cc(NC(=O)N2CC=C(c3c[nH]c4ccccc34)CC2)ccc1Br`?
PV pol inh: 109.0; PV pol inh intensity: 279.0

What do the screens show for `CC(NC(=O)Nc1ccccc1C(F)(F)F)c1c(-n2cccc2)sc2c1CCCC2` (stereo not given)?
PV pol inh: 102.0; PV pol inh intensity: 99.0

Results for Cc1ccc(-n2ncc(C(=O)N3CCN(c4ncccn4)CC3)c2C2CCN(C(=O)OC(C)(C)C)CC2)cc1 ?
PV pol inh: 107.0; PV pol inh intensity: 107.0

How did COc1ccc(-c2onc(C)c2C)cc1S(=O)(=O)NC1CCCCC1 do in these assays?
PV pol inh: 108.0; PV pol inh intensity: 106.0

What do the screens show for `CCC(Sc1ccc2nnc(CCNS(=O)(=O)c3ccc(OC)cc3)n2n1)C(=O)OC` (stereo not given)?
PV pol inh: 105.0; PV pol inh intensity: 105.0

What do the screens show for `CC(=O)N1CCc2cc(S(=O)(=O)CCC(=O)N3CCN(c4cccc(C)c4C)CC3)ccc21`?
PV pol inh: 112.0; PV pol inh intensity: 114.0

What do the screens show for `Cc1ccc(NS(=O)(=O)c2c(C)[nH]c(=O)[nH]c2=O)c(C)c1`?
PV pol inh: 103.0; PV pol inh intensity: 101.0

How did Cc1ccc(C)c(NC(=O)Cc2coc3cc(C)cc(C)c23)c1 do in these assays?
PV pol inh: 111.0; PV pol inh intensity: 111.0

How did CC(=O)c1ccc(N2CCN(C(=O)c3ccc(Cn4c(=O)[nH]c5ccccc5c4=O)cc3)CC2)cc1 do in these assays?
PV pol inh: 112.0; PV pol inh intensity: 104.0

Results for Cc1ccccc1/C=C(\C#N)c1nc(-c2ccc(Cl)cc2)cs1 ?
PV pol inh: 106.0; PV pol inh intensity: 105.0

How did CCn1c(=O)c2sccc2n2c(CCC(=O)Nc3ccc(OC)c(Cl)c3)nnc12 do in these assays?
PV pol inh: 109.0; PV pol inh intensity: 112.0

How did O=C(C1CCN(c2nc3ccccc3[nH]2)CC1)N1CCN(c2cccc(Cl)c2)CC1 do in these assays?
PV pol inh: 113.0; PV pol inh intensity: 100.0

How did CCN1CCc2c(sc(NC(=O)c3ccc(S(=O)(=O)N(C)C4CCCCC4)cc3)c2C(N)=O)C1 do in these assays?
PV pol inh: 105.0; PV pol inh intensity: 103.0

How did CCCOc1ccc(-c2cccc(NS(=O)(=O)c3ccccc3)c2)nn1 do in these assays?
PV pol inh: 103.0; PV pol inh intensity: 92.0

Results for O=C1CC(c2ccccc2)Cc2[nH]c(=O)c(C(=O)Nc3ccc(F)cc3)cc21 (stereo not given) ?
PV pol inh: 108.0; PV pol inh intensity: 118.0

Of the compounds above, seven contain an NH in an aromatic ring.
How did Fc1cccc(Cl)c1CNc1n[nH]c(-c2ccco2)n1 do in these assays?
PV pol inh: 105.0; PV pol inh intensity: 111.0

What do the screens show for `Cc1cc(C)cc(Oc2nc3c(C)cccn3c(=O)c2/C=C(\C#N)c2nc3ccccc3[nH]2)c1`?
PV pol inh: 105.0; PV pol inh intensity: 110.0

What do the screens show for `Cc1cc(NC(=O)N2CC=C(c3c[nH]c4ccccc34)CC2)ccc1Br`?
PV pol inh: 109.0; PV pol inh intensity: 279.0

What do the screens show for `Cc1ccc(NS(=O)(=O)c2c(C)[nH]c(=O)[nH]c2=O)c(C)c1`?
PV pol inh: 103.0; PV pol inh intensity: 101.0

How did CC(=O)c1ccc(N2CCN(C(=O)c3ccc(Cn4c(=O)[nH]c5ccccc5c4=O)cc3)CC2)cc1 do in these assays?
PV pol inh: 112.0; PV pol inh intensity: 104.0

How did O=C(C1CCN(c2nc3ccccc3[nH]2)CC1)N1CCN(c2cccc(Cl)c2)CC1 do in these assays?
PV pol inh: 113.0; PV pol inh intensity: 100.0

Results for O=C1CC(c2ccccc2)Cc2[nH]c(=O)c(C(=O)Nc3ccc(F)cc3)cc21 (stereo not given) ?
PV pol inh: 108.0; PV pol inh intensity: 118.0

These rows are one share of the data. The share of hits here may be higher or lower than overall.
